Source: PubChem
HCMV UL50-53 inh – inhibitors of HCMV UL50-UL53 interaction, biochemical, HTRF; actives 0.15% (n = 190,000); inhibition, % (concentration not given with the values); HCMV UL50-UL53 nuclear egress complex (human cytomegalovirus); normalized percent inhibition;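 active = both replicates at 50% or more, plus weaker picks with an unusually low signal ratio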;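 also: stock transfer was 100 nL into about 20 µL; 0% = negative control wells and 100% = wells with untagged competitor protein; inactives centre near -12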
Sa growth 42C – S. aureus growth inhibition at 42 and 30 °C, primary screen, LtaS inhibitor project, RN4220, two temperatures; OD600, 20 h, 42 °C; hits give low values; relative growth, % (no concentration beside the values); actives 0.53% (n = 170,000);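 active = growth at 42 °C up to 50% and 20 or more points under that at 30 °C, or under 10% at both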;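 also: 300 nL library stock went into each well; scaled to the means of positive and negative controls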
GIV Gai3 FP – inhibitors of GIV peptide binding to Galpha-i3, primary screen, biochemical, fluorescence polarization, FITC-GIV GBA peptide, rat Galphai3 | AID 1224905, 2016 | 90 min; hits give low values; scaled: aluminum fluoride 0%, vehicle 100% | percent of control (FP), % (concentration not given with the values) | Guanine nucleotide-binding protein G(i) subunit alpha-3 (Rattus norvegicus), P08753 | actives 0.42% (n = 210,000);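 active = replicate mean at 85% of control or lower, very high polarization wells dropped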;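 also: wells of about 15 µL received 100 nL stock; the first replicate is given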
Target sequence (P08753 whole entry, looked up): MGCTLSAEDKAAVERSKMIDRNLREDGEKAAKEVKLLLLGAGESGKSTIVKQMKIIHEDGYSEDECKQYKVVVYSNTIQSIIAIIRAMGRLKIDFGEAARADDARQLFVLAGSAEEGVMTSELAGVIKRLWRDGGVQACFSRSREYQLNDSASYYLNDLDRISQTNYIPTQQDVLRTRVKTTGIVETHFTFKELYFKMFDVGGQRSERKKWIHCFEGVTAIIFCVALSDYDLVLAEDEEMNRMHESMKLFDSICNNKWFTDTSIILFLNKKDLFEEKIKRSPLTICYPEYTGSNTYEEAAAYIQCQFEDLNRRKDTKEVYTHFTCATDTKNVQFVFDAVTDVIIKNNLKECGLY
Sa growth 42C second temp – recorded beside Sa growth 42C, whose call it bears; relative growth, %; measured here: growth at 30 °C;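 optical density after 20 h as mean of two plates; 100% = untreated growth and lower means inhibition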
* hit, by the source's call; / = no result given; & = joins results of further samples.

Screens in order – HCMV UL50-53 inh	Sa growth 42C	Sa growth 42C second temp	GIV Gai3 FP
Cn1c(=O)[nH]c(=O)c2c1nc1n2CCN1c1ccccc1
 : 21.0&-16.8	108.5	107.2	111.0&102.7
CCC(C)c1ccc(NC(=O)CC#N)cc1 (stereo unspecified)
 : -16.0	114.7	91.4	/
O=C(CCC1CCCC1)N1CCN(C(=O)c2cccnc2)CC1
 : 11.8	64.9	90.6	95.5
O=C(/C=C/c1ccco1)N(Cc1cccs1)C1CCS(=O)(=O)C1 (stereo unspecified)
 : /	113.3	73.0	102.2
O=C1C(=O)N(C2CCN(C(=O)c3ccccc3Cl)CC2)CCN1Cc1ccc(F)cc1
 : -12.4	73.8	85.9	103.8&94.6
COC(=O)c1nc2ccccc2nc1N1CCN(c2cc(C)ccc2C)CC1
 : -19.8	/	/	99.4
Cc1ccc(C(NC=O)c2ccccc2)cc1 (stereo unspecified)
 : -10.4	94.5	95.3	/
CCc1ccc(CN(Cc2cn[nH]c2-c2ccc(OC)cc2)C(=O)Nc2ccc(C)c(F)c2)cc1
 : -0.1	114.4	84.6	103.0
CCCc1cc(N2CCN(c3cccc(C)c3C)CC2)n2cnnc2n1
 : -7.6	84.1	96.5	99.8
COc1cccc(NC(=O)COc2coc(CSc3nncn3C)cc2=O)c1
 : -12.0	94.4	91.6	106.3
COc1ccc(C(CNC(=O)c2oc3ccccc3c2C)c2c[nH]c3ccccc23)cc1 (stereo unspecified)
 : -9.8	/	/	106.0
CCn1c(=O)c(-c2c(C)[nH]c3ccccc23)nc2cc(S(=O)(=O)N(C)C)ccc21
 : -106.9	88.1	86.5	/
Cc1noc(C)c1CSc1ccccc1C(=O)Nc1nc(SCc2ccc(Cl)cc2)n[nH]1
 : 14.9	122.6	106.1	/
COc1ccc(CNC(=O)CSCc2cnn(-c3ccccc3)c2-n2cccc2)cc1OC
 : -1.4&-10.6	84.2	77.3	110.0&99.5
Cc1ccc(Cn2c(CNC(=O)c3ccccc3Br)nc3cccnc32)cc1
 : /	96.8	98.6	123.1
Cc1ccc2nc(-c3cccnc3)c(Nc3ccccc3C)n2c1
 : -6.6	94.5	84.7	102.4
O=C(CC(=O)Nc1ccccc1OC(F)(F)F)Nc1ccccc1OC(F)(F)F
 : -24.2	86.4	90.0	110.2
Cc1ccc(S(=O)(=O)CCC(=O)N2CCN(c3nc4c(C)c(Cl)ccc4s3)CC2)cc1
 : /	112.7	93.2	90.8
CC(=O)N/N=C/c1ccc(-c2ccc(F)c(Cl)c2)o1
 : -70.1	82.5	100.2	109.2
COc1ccc(OC)c(NC(=O)c2cccs2)c1
 : -3.7	91.9	76.7	/
Cc1cccc(NC(=O)c2sc3ncnc(N(C)C4CCCCC4)c3c2C)c1C
 : /	136.2	100.2	107.9
Cn1nnnc1SCC(=O)Nc1nn(-c2ccccc2)nc1C(N)=O
 : 5.6	106.3	92.4	102.1
CC1CCCC(C)N1C(=O)COC(=O)c1ccc(N2C(=O)c3ccccc3C2=O)cc1 (stereo unspecified)
 : -8.1	97.7	102.2	/
COc1ccc(C2NCCc3c2[nH]c2ccccc32)cc1 (stereo unspecified)
 : -26.7&-8.4	/	/	99.2&100.0
CCNc1nc2nc3ccc(C)cn3c(=O)c2cc1C(=O)NCC1CCCO1 (stereo unspecified)
 : -98.9	113.1	90.1	105.5
COCCNC(=O)c1ccc(C(=O)NCCOC)cc1
 : -12.9	115.3	104.3	99.3
CNC(=O)CN(C)Cc1c(O)c(C(=O)NCc2ccccc2)cc2ccccc12
 : -34.0	88.5	78.2	/
COc1cccc(N2CCN(C(=O)c3cnc4c(C)cccn4c3=O)CC2)c1
 : /	105.5	87.4	96.6
COc1cc(/C=C\C(=O)NCc2ccc3[nH]c4c(c3c2)CCCC4)cc(OC)c1OC
 : /	98.7	81.7	99.0
CC(=O)N1CCCc2cc(NS(=O)(=O)CCc3ccccc3)ccc21
 : -6.7	/	/	96.8
O=C(COc1ccccc1)OC1OCCOC1OC(=O)COc1ccccc1 (stereo unspecified)
 : -9.9	112.4	91.6	/
COc1ccc(CNCCC(c2ccccc2)c2ccc3c(c2)OCO3)cc1 (stereo unspecified)
 : -10.0	75.7	39.5	100.9
CCN(C(=O)CSCc1nc(-c2ccc(OC)c(OC)c2)no1)c1cccc(C)c1
 : -32.2	/	/	99.3
CC(C)n1c(=O)c(=O)[nH]c2cc(-c3noc(C4CC(=O)N(c5ccccc5)C4)n3)ccc21 (stereo unspecified)
 : 2.2	/	/	98.5
O=C(O)Cn1cc(C(=O)C2CCCCC2)c2ccccc21
 : 2.3	107.2	104.5	108.2
COc1ccc(/C=C2/SC(=O)N(CCC(=O)Nc3ccccc3C)C2=O)cc1OC
 : -18.2	/	/	104.0
CCCn1c(=O)c2sccc2n2c(CCC(=O)NC3CCCC3)nnc12
 : -18.3	/	/	95.5
Cc1c(S(=O)(=O)NC2COc3ccc(Br)cc3C2)cnn1C(F)F (stereo unspecified)
 : -0.1	/	/	100.7
CC(CN1CCCC1)OC(=O)c1cc(C(C)(C)C)cc(C(C)(C)C)c1 (stereo unspecified)
 : /	39.3	38.7	102.9
Cc1sc2ncn(CC(=O)Nc3ccc(F)cc3Cl)c(=O)c2c1S(=O)(=O)N1CCN(c2ncccn2)CC1
 : -23.0	103.2	84.0	108.8
CC(C)(C)C1CCc2nc(NC(=O)COc3ccccc3[N+](=O)[O-])sc2C1 (stereo unspecified)
 : 12.3	102.7	96.0	97.2
CC(c1ccccc1)C1OCC(C[N+]2(C)CCCCC2)O1 (stereo unspecified)
 : /	84.1	93.8	101.8
Cn1cnc(S(=O)(=O)Nc2ccc3[nH]ccc3c2)c1
 : -16.9	96.2	86.4	100.1
Cc1n[nH]c(C)c1Nc1cnn(C23CC4CC(CC(C4)C2)C3)c(=O)c1Cl
 : /	109.0	83.9	103.5
O=C(NCCc1ccccc1)c1ccc2nc(CCc3ccccc3)oc2c1
 : /	96.2	95.8	104.0
C/C(Cn1nnc2ccccc21)=N/OC(=O)c1c(F)cccc1F
 : -9.5	93.9	82.6	104.8
C/C(CC1CC(COCCC(C)C)OC1=O)=N\NC(N)=S (stereo unspecified)
 : -16.6	100.2	86.6	98.3
O=C(Nc1cccc(-c2nc3ccccc3o2)c1)c1cc(=O)c2ccccc2o1
 : -7.2	92.0	92.5	106.0
Cc1ccccc1NC(=O)c1cn(C)c(=O)c2ccccc12
 : -24.1	/	/	103.8
CCn1cc(CNC(=O)CCCSc2nc(-c3ccco3)cc(C(F)(F)F)n2)cn1
 : -44.8	94.7	95.4	109.7
COc1ccc(C2=NN(C(C)=O)C(c3cc4ccc(C)cc4nc3Cl)C2)cc1 (stereo unspecified)
 : 1.6	/	/	107.0
COc1ccc(OCc2nnc(NC(=O)Nc3ccc(F)cc3)s2)cc1
 : 35.2	/	/	102.6
O=C1C(C=NC2CCCCCC2)=C(O)c2ccccc21
 : -57.6	85.3	76.9	98.9
CSc1cccc(NC(=O)C2CCCN2S(=O)(=O)c2cccc3cccnc23)c1 (stereo unspecified)
 : /	105.5	91.6	98.4
CCCSc1nnc2[nH]c(=O)cc(C)n12
 : /	98.7	95.1	101.3
CC12CN3CC(C)(CN(C1)C3c1ccccc1)C2=O (stereo unspecified)
 : -9.2	92.3	89.4	106.4
O=C(COc1ccccc1[N+](=O)[O-])N(Cc1ccco1)c1ccccn1
 : -23.5	96.2	85.2	104.2
Cc1ccc(NC(=O)c2oc3ccccc3c2NC(=O)c2ccccc2C)cc1
 : -38.9	94.2	85.6	102.2
O=c1cc(O)n(-c2ccccc2)c(=S)n1-n1c(=O)cc(O)n(-c2ccccc2)c1=S
 : 1.4	80.2	89.1	/
CCC(O)(c1ccc(OC)cc1)C(CN1CCOCC1)c1ccc(Cl)cc1 (stereo unspecified)
 : -2.4	/	/	104.6

Compound profiles (already shown). Values in the order: HCMV UL50-53 inh, Sa growth 42C, Sa growth 42C second temp, GIV Gai3 FP
`O=C1C(C=NC2CCCCCC2)=C(O)c2ccccc21` in the list: -57.6, 85.3, 76.9, 98.9
`O=c1cc(O)n(-c2ccccc2)c(=S)n1-n1c(=O)cc(O)n(-c2ccccc2)c1=S` in the list: 1.4, 80.2, 89.1, /
`Cc1ccc(NC(=O)c2oc3ccccc3c2NC(=O)c2ccccc2C)cc1` in the list: -38.9, 94.2, 85.6, 102.2

(continued)
Screens in order – HCMV UL50-53 inh	Sa growth 42C	Sa growth 42C second temp	GIV Gai3 FP
O=C(Cc1ccc(NC2=NC3CS(=O)(=O)CC3S2)cc1)NCc1ccc(F)cc1 (stereo unspecified)
 : -4.2	/	/	104.6
Cc1cc(OCC(O)Cn2c(C3CC3)nc3ccccc32)cc(C)c1Cl (stereo unspecified)
 : -15.2	/	/	104.2
CC(C)Cn1c(=O)c2ccccc2n2c(CCC(=O)NCc3ccccc3Cl)nnc12
 : -12.9	109.7	80.8	104.6
C1CCN(c2nc(N3CCCC3)nc(N3CCNCC3)n2)C1
 : -15.2	109.5	108.8	96.2
Cc1cccc(Nc2nc(C)cc(C)c2C#N)c1
 : /	100.7	81.8	96.1
COc1ccc(Cn2ccc3nc(C)c(C(=O)Nc4ccc(OC)cc4OC)cc3c2=O)cc1
 : -29.7	104.0	99.1	104.1&103.0
COc1ccc(C2CC(c3ccccc3)=NN2C(=O)CCC(=O)O)cc1 (stereo unspecified)
 : -35.1	/	/	104.3
Cc1ccc(NC(=O)C2(NS(=O)(=O)c3cccc4cccnc34)CCCCC2)cc1
 : /	109.7	92.0	96.9
O=C(CCC(=O)n1ncc2ccccc21)NC1CCCCC1
 : /	96.8	89.8	105.4
Cc1ccc(C)c(S(=O)(=O)c2cn(Cc3ccccc3)c3cc(N4CCCC4)c(F)cc3c2=O)c1
 : /	133.7	104.5	102.1
CCOc1ccc(C2c3cccn3-c3sc4c(c3CN2C(=O)NCCCOC)CCCC4)cc1 (stereo unspecified)
 : -29.0	/	/	102.0
COc1ccc(NC2SC(=O)N(c3ccccc3)C2=O)cc1 (stereo unspecified)
 : 10.5	73.9	105.6	107.9
COc1cccc(NC(=O)CSc2nccn2C2CCCC2)c1
 : /	125.1	91.4	102.9
CCSc1nnc2nc(C)cc(C)n12
 : -24.3	98.6	74.0	103.1
O=C1CC(c2ccc(S(=O)(=O)NCc3ccco3)cc2)CN1 (stereo unspecified)
 : -8.6	99.9	101.4	105.6
Cc1nn(-c2ccccc2)nc1C(=O)Oc1ccc(CC#N)cc1
 : -16.3	93.8	88.5	104.9
COc1ccc(CC(=O)Nc2noc(-c3ccc(Cl)cc3)n2)cc1
 : -9.7	/	/	98.7
C=CCn1c(NC(=O)c2ccccc2)c(C(=O)OCC)sc1=S
 : -13.0	80.7	93.2	/
Cc1cccc(Nc2nc(-c3ccccc3)no2)c1
 : -18.2	73.4	46.9	100.2
Cc1ccc(-c2nn(CC(=O)N(C)C)c(=O)c3ccccc23)cc1
 : /	103.3	90.7	99.2
COc1ccc(NC(=O)CN(C)C2CCCCC2)c(OC)c1
 : -12.3	109.8	94.5	/
COC(=O)c1ccccc1NC(=O)CCn1nc(C)c2c(C)n(-c3ccccc3)nc2c1=O
 : /	104.3	91.4	100.3
Cc1ccc2oc(-c3ccc(C)c(NC(=O)c4ccc(-c5ccccc5[N+](=O)[O-])o4)c3)nc2c1
 : -10.4	97.9	78.5	105.8
C1=CCC(CN2CCN(CC3CC4C=CC3C4)CC2)CC1 (stereo unspecified)
 : -21.3	90.2	100.3	100.7
CC1CCN(S(=O)(=O)c2ccc3c(c2)c(=O)c(C(=O)NCCc2ccccc2)cn3C)CC1
 : -20.6	102.5	90.1	98.8
Cc1ccc(C(=O)Cn2nc3n(CC(C)C)c(=O)c4ccccc4n3c2=O)cc1
 : -30.5	/	/	101.2
O=C(NCCc1ccccc1)c1c(O)c2cccc3c2n(c1=O)CC3
 : -15.7	80.3	82.0	103.7
CC1=NN(c2ccccc2)C(=O)C1/C=C1\C(=O)NC(=O)N(c2ccccc2)C1=O (stereo unspecified)
 : -5.6	107.8	92.5	103.6
CC1=C(c2ccc(C)cc2)S(=O)(=O)NC1=NCc1ccccc1Cl
 : -30.3	119.0	92.7	98.8
Cc1cc(C)c2[nH]c(=O)c(CN(Cc3ccc(F)cc3)Cc3nnnn3CC3CCCO3)cc2c1 (stereo unspecified)
 : -10.5	107.4	103.8	102.5
COC(=O)CCc1nc2ccccc2nc1OC
 : -71.2	82.5	87.8	104.8
O=c1ccc(-c2ccc(Cl)cc2)n[nH]1
 : -37.2	92.8	98.5	105.7

Shown with tabs: entries from further up.
smiles	HCMV UL50-53 inh	Sa growth 42C	Sa growth 42C second temp	GIV Gai3 FP
O=C(NCCc1ccccc1)c1c(O)c2cccc3c2n(c1=O)CC3	-15.7	80.3	82.0	103.7
CC1=NN(c2ccccc2)C(=O)C1/C=C1\C(=O)NC(=O)N(c2ccccc2)C1=O (stereo unspecified)	-5.6	107.8	92.5	103.6
CC1=C(c2ccc(C)cc2)S(=O)(=O)NC1=NCc1ccccc1Cl	-30.3	119.0	92.7	98.8
Cc1cc(C)c2[nH]c(=O)c(CN(Cc3ccc(F)cc3)Cc3nnnn3CC3CCCO3)cc2c1 (stereo unspecified)	-10.5	107.4	103.8	102.5
COC(=O)CCc1nc2ccccc2nc1OC	-71.2	82.5	87.8	104.8
